Source: PubChem BioAssay
gsp antagonist – qHTS for Antagonists of gsp, the Etiologic Mutation Responsible for Fibrous Dysplasia/McCune-Albright Syndrome: qHTS. 340,000 tested, 0.4% active. Potency, µM (series often up to 76.9 µM), for the others: at the highest dose activity change, negative = inhibition, hits mostly inhibitors. gsp-mutant cells, cAMP HTRF, 30 min; control for the full effect not named in the record; active = falling curve of any shape with a large fitted effect; inconclusive = falling curve, mostly with a smaller effect; inactive = flat or rising curve; cell line not stated here;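 further: intracellular cAMP measured with PDE inhibitor Ro 20-1724 present during compound exposure; potency means the concentration at half of the fitted maximal effect; on the % scale 0 is the no-effect control and ±100 the full control effect; nearly all actives have a fitted effect of over 65% in size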
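Cells in G418 medium, seeded 16-24 h, 37C; buffer exchange to DPBS + 1 mM CaCl2, 0.5 mM MgCl2, 0.05% BSA; cpds in DMSO + […] (300 uM stock), 30 min 37C; HTRF cAMP detection.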
TRPML1 inh – qHTS for Inhibitors of the Human Mucolipin Transient Receptor Potential 1 (TRPML1). activity change, negative = inhibition, % (concentration not given with the values). TRPML1-inducible cells, Ca2+ dye fluorescence, FDSS; active compounds read low; inhibition of EC80 agonist-evoked calcium signal. Mucolipin-1 (Homo sapiens), Q9GZU1. 390,000 tested, 0.02% active. AID 624415, 2012; in the data active means activity change below about -50%; inconclusive means about -30% to -50%; inactive means above about -30%;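 further: stimulus is agonist 54-4 at its EC80 concentration; on the % scale 0 is the no-effect control and ±100 the full control effect; the text of the record puts the active cut at -80%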
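TRPML1-DL cells, Tet-induced overnight (~16 h, 37 °C) at 1,500 cells/well, were loaded with Ca8 no-wash dye plus quencher for 45-90 min at room temperature. Compounds were pinned during FDSS kinetic reading; agonist 54-4 at EC80 (4 uM final) then added.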
TRPV1 PAM – HTS Assay for Compounds that Act as Potentiators of the Vanilloid Receptor 1 | TRPV1-expressing cells, Fluo-8 calcium influx, capsaicin EC20 potentiation; host cell line not named in the record; control for the full effect not named in the record | potentiation, % at 8.33 µM | 320,000 tested, 0.02% active | AID 540277, 2011; active means potentiation above 80%; inconclusive means 30% to 80%; inactive means below 30%; further: 0% is about no effect
Target sequence (Q8NER1 whole entry, looked up): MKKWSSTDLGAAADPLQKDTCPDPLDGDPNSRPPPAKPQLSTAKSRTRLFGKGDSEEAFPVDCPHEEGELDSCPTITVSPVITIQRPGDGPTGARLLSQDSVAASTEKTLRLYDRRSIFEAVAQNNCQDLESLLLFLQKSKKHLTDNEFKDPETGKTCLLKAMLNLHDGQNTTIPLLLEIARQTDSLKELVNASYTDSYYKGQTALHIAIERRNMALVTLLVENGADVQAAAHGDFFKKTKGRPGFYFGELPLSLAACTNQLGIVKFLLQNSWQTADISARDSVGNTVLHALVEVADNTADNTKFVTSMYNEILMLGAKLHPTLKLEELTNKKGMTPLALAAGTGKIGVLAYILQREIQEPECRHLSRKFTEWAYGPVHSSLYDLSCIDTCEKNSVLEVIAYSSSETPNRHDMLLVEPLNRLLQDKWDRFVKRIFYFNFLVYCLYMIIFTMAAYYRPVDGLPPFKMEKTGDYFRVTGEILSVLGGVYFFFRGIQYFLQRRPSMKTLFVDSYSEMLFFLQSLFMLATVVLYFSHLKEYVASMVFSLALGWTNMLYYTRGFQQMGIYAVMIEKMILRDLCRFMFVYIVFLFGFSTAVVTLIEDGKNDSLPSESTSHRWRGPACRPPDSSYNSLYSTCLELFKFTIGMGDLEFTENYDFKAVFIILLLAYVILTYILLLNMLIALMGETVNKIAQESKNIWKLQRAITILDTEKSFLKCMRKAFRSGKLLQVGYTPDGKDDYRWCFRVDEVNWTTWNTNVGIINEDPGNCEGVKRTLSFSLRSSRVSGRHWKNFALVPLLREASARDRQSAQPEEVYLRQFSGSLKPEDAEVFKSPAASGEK
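Cells expressing TRPV1 were dye-loaded with Fluo-8 and read kinetically: 10 s baseline, 3 min after compound (agonist portion), then 2 min after EC20 capsaicin (allosteric enhancer portion). Calcium-bound dye fluorescence at 480/520 nm.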
Sfp inh – qHTS Assay for Inhibitors of Bacillus subtilis Sfp phosphopantetheinyl transferase (PPTase) | 4'-phosphopantetheinyl transferase ffp (Bacillus subtilis), Q9F4F7 | Biochemical Sfp PPTase activity, qHTS | Potency, µM, for inactives: max response, negative = inhibition, actives largely listed as inhibitors | 310,000 tested, 3.5% active; active means well fitted inhibition curve with a large enough effect; inconclusive means small, poorly fitted or top-dose-only effect, or another doubt; inactive means no such curve, though single readings can be large or run the other way;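 further: the enzyme is Sfp with the accession as filed and its product quenches rhodamine fluorescence; potency means the concentration at half of the fitted maximal effect; 0% = enzyme reaction without inhibitor and -100% = no enzyme wells; top concentration of the series not given in the record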
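Compounds were incubated with enzyme (final 15 nM) for 15 min at room temperature before substrate addition started the reaction. Fluorescence at 525 nm excitation, 598 nm emission was recorded immediately and after 30 minutes.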
gsp agonist – qHTS for Agonist of gsp, the Etiologic Mutation Responsible for Fibrous Dysplasia/McCune-Albright Syndrome: qHTS; Potency, µM (titrated, usually from 76.9 µM), for the others: at the highest dose activation (cAMP increase), actives largely listed as activators; 340,000 tested, 0.13% active; AID 624287, 2012; gsp mutant cells, cAMP HTRF, 30 min; control for the full effect not named in the record; active = well fitted activation curve with a large enough effect; inconclusive = small, poorly fitted or top-dose-only effect, or another doubt; inactive = no such curve, though single readings can be large or run the other way; cell line not stated here;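 further: phosphodiesterase inhibitor Ro 20-1724 added with compounds to block cAMP breakdown; potency means the concentration at half of the fitted maximal effect; nearly all actives have a fitted effect of over 60% in size; about a fifth of the inactives were tested at one dose only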
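Cells stably selected in G418 were plated at 2000/well, grown 16-24 hr, then given compounds in DMSO with the PDE inhibitor […] (300 uM solution added) for 30 min at 37C; cAMP was read by HTRF.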
ClpP mod – qHTS Assay for Activators of ClpP | ATP-dependent Clp protease proteolytic subunit (Bacillus subtilis (strain 168)), P80244 | purified B. subtilis ClpP, FRET peptide cleavage, 20 min | Potency, µM (highest dose often 57.5 µM), inactives show at the top dose activity change, negative = active | 340,000 tested, 1.9% active; active = well fitted falling curve with a large enough effect; inconclusive = small, poorly fitted or top-dose-only effect; inactive = no such curve, though single readings can be large or run the other way; further: potency means the concentration at half of the fitted maximal effect; the source files actives as falling curves though it sought activators and does not explain the sign; nearly all actives have a fitted effect of over 65% in size; many hits overshoot -100%
Target sequence (P80244 whole entry, looked up): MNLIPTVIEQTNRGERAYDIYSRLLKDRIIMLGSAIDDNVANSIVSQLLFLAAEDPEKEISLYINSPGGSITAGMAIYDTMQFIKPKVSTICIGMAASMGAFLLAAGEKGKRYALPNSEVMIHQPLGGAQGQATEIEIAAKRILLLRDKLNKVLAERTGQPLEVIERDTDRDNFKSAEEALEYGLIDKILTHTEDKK
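Purified B. subtilis ClpP, 10 microg/mL final in Tris/HCl pH8 with KCl, BSA, glycerol and Tween-20, cleaved an Abz/nitrotyrosine-quenched decapeptide. Fluorescence (ex 320, em 430) was read at 0 and 20 min at room temperature. Delta was normalized to 5.8 microM ADEP and DMSO/no-enzyme controls.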
Menin MLL FP FL – qHTS Assay for Inhibitors Targeting the Menin-MLL Interaction in MLL Related Leukemias: Competition With Fluorescein Labeled MLL-derived Peptide | 290,000 tested, under 10 active | FP activity change, % at 61.4 µM | Fluorescence polarization, fluorescein-MLL peptide displacement from menin | AID 1766, 2009; inconclusive = falling polarisation curve, or a change in total fluorescence; inactive = total fluorescence flat and polarisation flat or rising; no compound was filed as active; the % refers to the polarisation; negative = inhibition;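 further: % of control where 0% means no effect; inhibitors lower the polarisation; unlabelled MLL peptide was the positive control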
Starred values were filed as active, the others as inactive; ? = inconclusive; . = not tested or not shown; [ ] = remark or other dose. Random draw from the library; about 4.9% have a hit in one of these screens.

#	mol	gsp antagonist	TRPML1 inh	TRPV1 PAM	Sfp inh	gsp agonist	ClpP mod	Menin MLL FP FL
1	CCOc1ccc(-n2c([S-])c(C(=O)Nc3ccc(S(=O)(=O)N4CCOCC4)cc3)[n+]3cc(C(N)=O)ccc23)cc1	10.9%	2.5	-2.8	2.7%	3.7%[15.4 µM]	.	-3.8
2	CN(Cc1ccc(Cl)c(Cl)c1)C(=O)c1ccccc1SCC(=O)N1CCCC1	-7.0%	10.2	0.1	.	24.0%[15.4 µM]	.	.
3	Cc1n[nH]c(=O)n1-c1ccc(C(C)C)cc1	16.0%	-7.3	2.1	12.0%	1.2%[15.4 µM]	.	7.8
4	CC1CCc2onc(C(=O)O)c2C1 (stereo not drawn)	-1.6%	-13.6	-3.5	7.2%	-72.1%[inhibitor]	.	0.1
5	CCC1Sc2ccccc2N(CC(=O)NCCC2=CCCCC2)C1=O (stereo not drawn)	-21.0%	20.7	11.1	2.1%	-4.1%	-0.5%	-0.6
6	CC(C)CCN1C(=O)c2ccc(C(=O)Nc3cccc(S(N)(=O)=O)c3)cc2C1=O	-23.9%	0.3	-23.9	-5.0%	9.7%	11.7%	1.8
7	O=C(C(Cc1ccccc1)NS(=O)(=O)c1cccc2cccnc12)N1CCc2ccccc21 (stereo not drawn)	-4.4%	-17.3	-10.6	26.6%	24.8%	0.0%	4.5
8	COc1ccc(C(C)=O)cc1COC(=O)CNC(=O)c1ccc(F)cc1	5.0%	-2.7	5.8	1.7%	7.2%	0.3%	4.0
9	CC(=O)c1ccc(OC(C)C)c(CSC(=N)N)c1	12.6%	1.6	-12.8	14.5%	?	-1.4%	1.1
10	Cc1cccc(C(C)(C)C)c1OCCN1CCCC1	7.0%	5.3	-2.3	-44.8%	-6.0%[15.4 µM]	-0.9%	6.0
11	CC(=O)Nc1ccc(S(=O)(=O)NCc2nc(-c3ccccc3)no2)cc1	0.0%	20.2	9.5	9.0%	-35.1%[inhibitor]	.	0.5
12	CCc1cccc(NS(=O)(=O)c2cccc3cccnc23)c1	10.7%	-13.8	2.2	6.1%	-1.9%	.	-12.4
13	O=C(Nc1ccc2c(c1)OCO2)Oc1ccccc1	-14.8%	-2.1	-20.8	0.5%	15.1%	-3.3%	6.3
14	C=CCn1c(NC(=O)c2ccc(Br)o2)c(S(=O)(=O)c2ccccc2)c2nc3ccccc3nc21	-13.9%	-16.1	?	-13.0%	?	-26.2%	?
15	CCOC(=O)c1c(C)n(C)c2c1cc(OC(C)=O)c1ccccc12	2.2%	4.8	-11.3	12.6%	-2.7%[15.4 µM]	-1.7%	-2.3
16	COc1ccc(NC(=O)c2ccc(NS(=O)(=O)c3c(C)noc3C)cc2)cc1OC	-0.9%	-5.3	2.3	12.2%	-22.9%	1.7%	-2.2
17	COC(=O)c1ccc2c(=O)n(CCN3CCOCC3)c(SCC(=O)C(C)(C)C)nc2c1	-14.9%	0.4	-23.1	11.6%	-8.3%	-10.9%	0.6
18	COc1cc(C(=O)NCCc2cc3c(OC)ccc(OC)c3[nH]c2=O)cc(OC)c1OC	-5.8%	2.6	-6.6	6.3%	?	-2.9%	0.4
19	CCOc1ccc(Nc2oc(-c3ccco3)nc2C#N)cc1	-1.9%	5.9	-4.4	-3.1%	7.1%	-26.7%	3.4
20	CCOC(=O)C1=C(COC(=O)[C@H](C)NS(=O)(=O)c2ccc(NC(C)=O)cc2)NC(=O)NC1C (stereo partly drawn)	-1.1%	-6.8	-7.5	.	-30.9%[inhibitor]	-0.9%	.
21	O=C(COC(=O)CCC(=O)c1cccs1)Nc1cccc(S(=O)(=O)N2CCOCC2)c1	-2.5%	15.7	7.6	0.7%	3.7%	-3.2%	9.7
22	CCOc1ccc(C2=CSC3=NCCN23)cc1	2.1%	0.8	2.4	-8.3%	-5.8%[15.4 µM]	0.6%	1.8
23	CC(C)(C)n1nnnc1C(c1cccs1)N(Cc1cccnc1)Cc1ccco1 (stereo not drawn)	-16.8%	1.5	-26.6	10.6%	-2.0%	5.3%	9.5
24	NC(=O)Nc1ccc(C(=O)OCC(=O)Nc2cccc(S(=O)(=O)NC3=NCCCCC3)c2)cc1	8.6%	8.1	6.7	7.9%	28.6%	5.3%	0.4
25	COc1ccc(C(=O)NNS(=O)(=O)c2ccc(OC)cc2)cc1	1.6%	-0.1	6.4	24.6%	-33.0%[inhibitor]	0.3%	-1.8
26	Cc1ccc(Cl)cc1N1CCN(C(=O)CN2C(=O)c3cccc4cccc2c34)CC1	-12.4%	-1.9	15.4	15.2%	-2.0%	-12.9%	1.6
27	COc1cc(CC(=O)Nc2ccc(S(=O)(=O)Nc3ncccn3)cc2)cc(OC)c1OC	-2.0%	2.1	16.5	15.3%	21.5%	-1.5%	5.0
28	Nc1ccc2c(c1)Cc1cc(Cl)c(Cl)cc1-2	-2.8%	-13.6	.	.	-20.4%	-7.4%	.
29	COc1ccccc1C(=O)NCCC(=O)N1CCN(S(=O)(=O)c2ccc(Cl)cc2)CC1	-3.7%	-9.3	-3.0	.	-27.6%	-1.3%	.
30	O=C(CSc1nncs1)NC(=O)NCc1ccco1	-2.5%	-5.7	3.0	-5.5%	0.6%	-1.3%	2.7
31	COCCNC(=O)C(c1cccs1)N(C(=O)Cn1nnc2ccccc21)c1cccc(C(C)=O)c1 (stereo not drawn)	-1.1%	-13.5	-9.9	12.1%	0.1%	1.6%	4.1
32	COc1ccc(-c2[nH]ncc2[C@@H]2C[C@H]3CN(Cc4ccccc4C)C(=O)[C@]34CCCN24)cc1	-33.7%	1.4	0.5	-7.4%	-8.0%	0.0%	2.0
33	COc1ccc(-c2c3c(nc4sc(C(=O)Nc5ccccc5)c(N)c24)CCC3)cc1	1.1%	-10.4	.	.	11.9%	-15.9%	.
34	CC(=O)c1cnc2scnn2c1=O	-2.7%	-11.6	5.4	18.0%	19.3%[15.4 µM]	.	-0.7
35	Cc1cc(-c2ccc(C)c(S(=O)(=O)N3CCN(C(=O)c4ccco4)CC3)c2)on1	-7.9%	9.5	-13.7	15.2%	-0.7%	0.2%	-3.1
36	COc1cc(C(C)=O)ccc1OCC(=O)OCC(=O)c1cc(C)n(CC2CCCO2)c1C (stereo not drawn)	-12.1%	-14.8	2.0	.	-32.5%[inhibitor]	-3.5%	.
37	CCc1nc(SCC(=O)NCc2ccccc2)c2c(=O)n(C)c(=O)n(C)c2n1	-2.1%	11.5	-1.1	23.3%	0.3%	0.8%	0.8
38	O=C1Nc2ccccc2N=C(c2ccccc2)C1Br (stereo not drawn)	-16.1%	-2.0	0.7	44.7µM*	-0.8%	.	?
39	Cc1cc(N2CCN(S(=O)(=O)c3ccc(Cl)cc3)CC2)c2ccccc2n1	50.1µM*	-2.7	0.1	-21.8%	-4.4%	?	2.8
40	CCCc1cc2c(=O)c(-c3nc4ccccc4s3)c(COCC(=O)O)oc2cc1O	-12.3%	12.9	?	-7.9%	?	.	?
41	O=C(NNc1nc(=O)c2cccnc2s1)c1ccccc1O	20.8%	4.0	14.2	19.8%	46.7%[15.4 µM]	.	-0.6
42	CCCCN(C)CCNC(=O)CN1C(=O)CSc2ccc(S(=O)(=O)N3CCCC3)cc21	-1.6%	35.2	5.2	11.4%	?	-0.2%	1.3
43	S=C1NC2=C(CCC/C2=C\c2ccccc2)C(c2ccccc2)N1 (stereo not drawn)	-0.9%	9.0	-0.3	22.4µM*	-2.0%	1.5%	1.7
44	Cc1ccc(C)c(C(C)NC(=O)CC#N)c1 (stereo not drawn)	-6.5%	-5.6	7.8	6.0%	-20.1%	0.8%	-0.4
45	CC(C)c1ccc(NC(=S)N2CCN(S(=O)(=O)c3ccccc3)CC2)cc1	-7.4%	-6.3	7.3	15.7%	-7.9%	1.6%	.
46	CCOC(=O)c1cnc2c(OC)cccc2c1Oc1ccccc1	10.3%	.	19.7	19.6%	9.0%	-28.0%	-4.5
47	CN(C)Cc1ccccc1Sc1ccc(O)cc1O	10.8%	-2.2	-23.7	-0.6%	18.1%[15.4 µM]	-0.6%	5.9
48	Cc1nnc(SCC(=O)Nc2sc3c(c2C#N)CCCC3)[nH]c1=O	-0.5%	-26.4	5.7	-18.0%	-27.5%	-2.2%	5.1
49	CC(NC(=S)Nc1ccc(OC(F)F)cc1)c1ccc(F)cc1 (stereo not drawn)	11.0%	16.8	-15.5	19.1%	-4.6%	1.2%	-1.1
50	Clc1ccc(Cn2cc(/C=N/n3cnnc3)c3ccccc32)cc1	-1.5%	19.0	2.8	-13.6%	-7.7%	108.2%	0.0

Continued.
#	mol	gsp antagonist	TRPML1 inh	TRPV1 PAM	Sfp inh	gsp agonist	ClpP mod	Menin MLL FP FL
51	CC1=CC(C)(C)N2C(=O)C3(SCC(=O)N3c3ccc(F)cc3)c3cc(C)cc1c32 (stereo not drawn)	2.7%	24.3	-9.6	-3.1%	?	-0.3%	-1.0
52	O=C(NCc1ccccc1)c1ccc(Br)cc1Br	-0.1%	44.6	-4.4	7.9%	9.3%[15.4 µM]	1.0%	11.1
53	CN(CC(=O)Nc1ccccc1F)S(=O)(=O)c1ccc2c(c1)n(C)c(=O)c(=O)n2C	1.6%	-7.5	-3.7	15.9%	?	?	-1.9
54	Cc1ccc(/C=C/C(=O)Nc2cc(S(=O)(=O)N3CCCCCC3)ccc2OCC(F)(F)F)o1	6.9%	-14.4	18.4	?	-33.0%[inhibitor]	-17.8%	14.7
55	O=C(Cn1ccc([N+](=O)[O-])n1)NCc1ccccc1	16.4%	-6.1	.	.	3.3%[15.4 µM]	0.8%	.
56	CC(=O)N1CCc2cc(N=NC3=C(O)CCCC3=O)ccc21	?	-11.4	-4.6	-0.3%	-4.4%	.	?
